Source: PubChem BioAssay (ICCB-Longwood Screening Facility, Harvard Medical School)
MgrA-DNA mod = alters Staphylococcus aureus MgrA binding to DNA. fluorescence polarization. inhibition, %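 (about 10 µg/mL by stock and volumes)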. hit rate 0.13% among 84,000. AID 602314;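 active = above 50% in either of two replicates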;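 also: 0% = protein plus DNA without compound and 100% = DNA alone without protein; higher means less MgrA bound to DNA so lower polarization; one replicate is shown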
S aureus helic = blocks Staphylococcus aureus DNA helicase; purified S. aureus helicase, fluorescence unwinding assay; about half of the hits fall short of the stated cut; inhibition, %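 (tested at about 80 µM)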; hit rate 0.05% among 120,000; AID 485395;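 active = both duplicates at 50% or more, or one of them with a favoured structure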;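 also: 0% = mean of negative control wells and 100% = mean of positive control wells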
Active calls of the source: *; . = no result given. Only part of the results is shown; rates above refer to the full screens.

Start of the data: the first 6 entries (preview)
Structure	MgrA-DNA mod	S aureus helic
COc1cccc2c(C)cc(N3CCCCC3)nc12	4.5	10
CCOC(=O)c1csc(N/N=C2\CCCc3cc(OC)ccc32)n1	2.0	.
c1cncc(CNc2ccc(-c3nc4ncccc4o3)cc2)c1	-4.2	17
CN1CCN(NC(NC(=O)c2cccnc2)(C(F)(F)F)C(F)(F)F)CC1	.	-49
CC(=O)Oc1ccccc1C(=O)Nc1ccc(C(N)=O)cc1	-2.5	13
CSc1ncccc1C1=N/C(=C\c2ccc(C(F)(F)F)cc2)C(=O)O1	-0.7	.

Main list, repeating the preview:
Structure	MgrA-DNA mod	S aureus helic
COc1cccc2c(C)cc(N3CCCCC3)nc12	4.5	10
CCOC(=O)c1csc(N/N=C2\CCCc3cc(OC)ccc32)n1	2.0	.
c1cncc(CNc2ccc(-c3nc4ncccc4o3)cc2)c1	-4.2	17
CN1CCN(NC(NC(=O)c2cccnc2)(C(F)(F)F)C(F)(F)F)CC1	.	-49
CC(=O)Oc1ccccc1C(=O)Nc1ccc(C(N)=O)cc1	-2.5	13
CSc1ncccc1C1=N/C(=C\c2ccc(C(F)(F)F)cc2)C(=O)O1	-0.7	.
CCn1c(SCc2c(C)noc2C)nc2cc(S(=O)(=O)N3CCOCC3)ccc21	.	-4
CC(=O)c1sc2ccccc2c1O	.	-22

(next part)
Structure	MgrA-DNA mod	S aureus helic
CCOC(=O)c1c(C)n(-c2ccccc2)c2ccc(O)cc12	3.3	.
O=C(CCSCc1ccccc1Cl)NC1CCCC1	.	12
Cc1ccc(S(=O)(=O)N(CC(=O)N2CCC(C)CC2)C(=O)N2CCN(C)CC2)cc1	.	-3
CCCN1C(=O)/C(=C/c2cc(C)n(-c3ccc(Cl)cc3)c2C)NC1=S	1.9	1
CSc1nc2ccc(NC(=O)c3ccc4snnc4c3)cc2s1	-1.2	.
O=C(Nc1cccc(C(=O)NCCN2CCCC2)c1)C1=CSCCO1	.	11
COC(=O)C1=C(C)NC2=C(C(=O)CCC2)C1c1c[nH]c2ccccc12 (stereo unspecified)	-4.5	.
CC12CC(c3ccccc3O1)C(C(=O)Nc1nc(-c3ccccc3)cs1)C(=O)N2 (stereo unspecified)	.	14

Further results:
Structure	MgrA-DNA mod	S aureus helic
O=C(Cn1c(-c2ccccn2)nc2ccccc21)NCCc1ccccc1	.	-10
CC(C)(C)NS(=O)(=O)c1ccc2oc3ccc(S(=O)(=O)NC(C)(C)C)cc3c2c1	-1.8	9
Cc1c(C(=O)NCCN(C)C)sc2nc(-c3ccc(F)cc3)cn12	.	27
COC(=O)C1=C(O)c2ccccc2S(=O)(=O)N1C	-2.8	4
O=C1c2ccccc2C(=O)N1CC(=O)n1nc(-c2cccnc2)nc1NCc1cccs1	.	-17
O=S(=O)([N-]c1nc2ccccc2nc1-[n+]1ccccc1)c1ccccc1	-2.2	6
O=C(Nc1ccc(S(=O)(=O)Nc2nccs2)cc1)C1CCCO1 (stereo unspecified)	-2.6	2
Oc1ccc(C=NCC2COc3ccccc3O2)cc1 (stereo unspecified)	.	-8

(further entries)
Structure	MgrA-DNA mod	S aureus helic
Cn1c(=O)c2cn(C(C)(C)C)cc2n(C)c1=O	.	29
O=C(C1CCCN(S(=O)(=O)c2ccc(Cl)cc2)C1)N1CCCC1 (stereo unspecified)	-0.6	14
O=C(CSc1ccc(-c2ccco2)nn1)N1CCCC1	0.4	1
Cc1[nH]c2ccccc2c1/C=N/NC(=O)Cc1nc2sc(C)c(C)c2c(=O)[nH]1	.	-22
Cc1ccc(C(=O)NCc2ccco2)o1	.	-4
COc1ccc2nc(C)cc(NCCN3CCOCC3)c2c1	.	34
O=C1NC2CCCCC2NC1CC(=O)N1CCN(Cc2ccccc2)CC1 (stereo unspecified)	0.4	-4
Cc1noc2ncn(CC(=O)NCCc3ccccc3)c(=O)c12	.	-18

Further results:
Structure	MgrA-DNA mod	S aureus helic
CC(O)CCc1nc2ccc(C(=O)O)cc2[nH]1 (stereo unspecified)	.	13
CC(=O)Nc1ccc(NC(=O)CNC2CCC(C)CC2)cc1 (stereo unspecified)	.	11
Cc1[nH]c(=S)n(C2CCCCC2)c1C	.	7
CC(=O)O[C@H]1C(=O)[C@@]2(C)[C@H](O)C[C@@H]3OC[C@]3(OC(C)=O)[C@@H]2[C@@H](OC(=O)c2ccccc2)[C@@]2(O)C[C@@H](OC(=O)[C@@H](O)[C@H](NC(=O)c3ccccc3)c3ccccc3)C(C)=C1C2(C)C	-0.8	.
OC1CCN(C(=S)NC2CCCC2)CC1	5.5	3
O=C(O)c1c(C(F)(F)F)cc[nH]c1=O	-3.8	.
COC(=O)c1c(C)oc(C)c1S(=O)(=O)N1CCCCC1	.	-8
C1=C(c2ccccc2)Nc2ncnn2C1c1ccco1 (stereo unspecified)	.	-1

(list continues)
Structure	MgrA-DNA mod	S aureus helic
O=C(O)c1cc2c([nH]c1=O)CCCC2	.	5
CC(C)(Oc1ccc(Cl)cc1)C(=O)NCCn1ccc2ccccc21	.	-19
O=C(Oc1cc(Cl)cc(Cl)c1)c1ccccc1F	0.8	.
Cn1c(=O)c(=O)n(C)c2cc(S(=O)(=O)CCC(=O)N3CCCCC3)ccc21	.	-4
COc1cccc(-c2noc(-c3ccccc3C)n2)c1	2.0	9
O=C1CC(c2ccccc2)CC(O)=C1C=NCCN1CCN(C2OC(=O)c3ccccc32)CC1 (stereo unspecified)	-1.1	-13
CN1CCN(c2nc(-c3ccc[nH]3)cs2)CC1	.	-11
CCS(=O)(=O)N1CCN(c2cc(C(F)(F)F)ccn2)CC1	-0.8	.

The list goes on.
Structure	MgrA-DNA mod	S aureus helic
CN1CC(c2ccccc2)OC1=O (stereo unspecified)	-2.2	9
O=C(O)c1ccc(-c2ccccc2F)cc1	-0.6	.
CCN(CC)C(=O)c1sc(NC(=S)N(C)Cc2cn(CC)nc2C)c(C(=O)OC)c1C	2.9	4
Cc1ccc(C)c(-c2nnc(NC(=O)/C=C/c3cccs3)o2)c1	.	11
CCOc1ccc(/C=C2\CCc3ccccc3C2=O)cc1	-0.3	.
CN(C)c1ccc(C(=O)c2ccccc2)cc1	.	-8
C/C(CCc1ccc2c(c1)OCO2)=N\NC=O	.	10
CCOC(=O)C(Cc1ccc(O)cc1)NC(C)=O (stereo unspecified)	1.8	.

(list continues)
Structure	MgrA-DNA mod	S aureus helic
O=C(Nc1ccc(OC(F)(F)F)cc1)Nc1cc(-c2ccco2)[nH]n1	-1.7	.
CCCCn1c(SCC(=O)c2ccc3c(c2)NC(=O)CO3)nc2cc(S(N)(=O)=O)ccc21	.	4
O=C(NCCCN1CCCC1=O)Nc1cnc2ccccn2c1=O	.	17
Brc1cc2c(cc1CSc1nnc(C3CC3)n1C1CC1)OCCO2	.	-4
Cc1ccn(CN2CCN(Cn3ccc(C)n3)C2=S)n1	11	1
CCCSc1ncccc1C(=O)Nc1c(C)noc1C	0.5	.
O=C(O)c1ccccc1Cn1ccnc1	-0.5	-12
N#Cc1c(Cl)cccc1NCc1ccc(Cl)cc1	-0.4	.

(list continues)
Structure	MgrA-DNA mod	S aureus helic
Nc1nnc(CC(=O)c2ccccc2)c(=O)[nH]1	.	-5
CN1C(=O)/C(=c2\sc3nc(-c4ccccc4)nn3c2=O)c2ccccc21	-1.4	4
COc1ccc(OCCn2cc(C=C3C(=O)N(C)C(=O)N(C)C3=O)c3ccccc32)cc1	4.2	7
Cn1cccc1C(=O)OCC(=O)Nc1cc(C(C)(C)C)nn1-c1ccccc1	.	1
CC(SC1=N/C(=C\c2ccco2)C(=O)N1c1ccc(OC(F)F)cc1)C(=O)N1CCc2ccccc21 (stereo unspecified)	.	-10
Cc1oc(-c2ccc(Cl)cc2)cc1CO	.	-6
CN(C)C=Nc1ccc2nnc(-c3ccccc3)n2n1	-0.5	.
C/C(=N\NC(=O)C1CCN(S(=O)(=O)c2ccccc2)CC1)c1ccccc1	.	38

(next part)
Structure	MgrA-DNA mod	S aureus helic
CCOC(=O)c1c(C)n(-c2ccc(N(C)C)cc2)c2ccc(OC)cc12	-1.6	1
CN(C)Cc1ccc(C#N)cc1	.	3
Cc1ccc(C)c(NC(=O)c2ccccc2NC(=O)C2CCCO2)c1 (stereo unspecified)	-0.4	4
Cc1ccc2c(CC(=O)OCc3ncc(-c4ccccc4)o3)coc2c1	.	-8
CCOc1ccc2nc(NC(=O)c3ccc(C#N)cc3)sc2c1	.	18
CN(C)c1cccc(C(=O)OCC(=O)C(C)(C)C)c1	.	-5
O=C(NCSCc1cccc(C(F)(F)F)c1)Nc1ccc(F)c(Cl)c1	-0.8	.
Cn1ncc(I)c1C(=O)N1CCc2ccccc2C1	0.5	2

(list continues)
Structure	MgrA-DNA mod	S aureus helic
CN1CCC(N(C)C(=O)c2ccc(NS(=O)(=O)c3cccs3)cc2)CC1	.	7
COC(=O)c1scc(C)c1NN1C(=O)C=C(C)C1=O	-1.8	.
CN(Cc1ccccc1)Cc1c[nH]c2ccccc12	.	-21
O=c1[nH]c2ccccc2c(=O)n1NC(=S)NC1CC2CCC1C2 (stereo unspecified)	.	4
COC(CN(C)S(=O)(=O)c1cccc2cccnc12)OC	1.2	4
CC(O)CNc1ncnc2sccc12 (stereo unspecified)	.	3
COC(=O)c1cn(NC(=O)c2cccc(OC)c2)c(=O)c2ccccc12	0.7	9
CC1=CC(C)(C)N(CN2C(=O)c3ccccc3C2=O)c2cc(C)ccc21	0.9	.

Other records:
Structure	MgrA-DNA mod	S aureus helic
CC1CCCC(C)N1/N=C/c1ccccc1F (stereo unspecified)	.	-20
O=C(O)c1ccc2c(c1)OCCO2	-1.7	.
Cc1ccc(-c2nc(Nc3nc(C)cc(C)n3)n[nH]2)cc1	.	14
Cc1onc(-c2ccccc2)c1C(=O)NC1CCCC1	-1.5	7
CCSC1=N/C(=C/c2ccsc2)C(=O)N1c1ccccc1	.	-26
COc1cccc(C(=O)Nc2nnc(-c3ccc(Br)cc3)s2)c1	.	17
COc1ccc(S(=O)(=O)N(C)c2ccc(C(N)=O)cc2)cc1OC	-0.8	-1
O/N=C/c1cn(CC(O)COc2ccc(Cl)cc2)c2ccccc12 (stereo unspecified)	.	14

The list continues:
Structure	MgrA-DNA mod	S aureus helic
CCCCn1c(SCC(=O)NCc2ccc(C)cc2)nc2ccc(N3CCOCC3)cc2c1=O	3.1	-10
CC1(C2CC2)NC(=O)NC1=O (stereo unspecified)	0.1	.
O=C(Nc1cccnc1Sc1ccc(Cl)cc1)C(c1ccccc1)C1CCCC1 (stereo unspecified)	-1.6	.
CCOc1cc(/C=C2\N=C(c3ccccc3Cl)OC2=O)cc(Br)c1OC(C)=O	-1.7	.
COc1ccc2c(ccn3cc4c(c(=O)n(C)c(=O)n4C)c23)c1	1.7	25
CC(C)(Oc1ccc(Br)cc1)C(=O)O	-6.3	1
Cc1nc2ccccc2nc1N=C(N)NC(=O)c1ccccc1	-5.1	14
CCCNc1ncnc2c1c(-c1ccccc1)cn2-c1ccc(OC)cc1	1.5	2

(further entries)
Structure	MgrA-DNA mod	S aureus helic
COc1cc2cc(Oc3ccc4ccc(=O)oc4c3)c(=O)oc2cc1O	1.8	2
O=C(c1ccc([N+](=O)[O-])cc1)N(c1cc(C(F)(F)F)cc(C(F)(F)F)c1)c1nc2ccccc2s1	-2.6	.
O=C(O)CC1(CC(=O)Nc2nccs2)CCCC1	.	1
Cc1c(Br)c([N+](=O)[O-])nn1CC(=O)Nc1ccc(Oc2ccc(Cl)cc2)cc1	-1.2	.
Nc1nnc(-c2ccccc2)o1	-0.7	-3
O=C(Nc1csc2ccccc12)N1CCN(C(c2ccccc2)c2ccccc2)CC1	0.3	.
COc1ccccc1/C=C1\C(=O)NC(=O)N(C2CCCC2)C1=O	0.5	16
CC(C)(C)c1ccc(-c2nnc(N)o2)cc1	0.6	.

(further entries)
Structure	MgrA-DNA mod	S aureus helic
O=C1Nc2ccccc2S/C1=C\C(=O)N1CCCC1	-1.1	12
CCC(C)NC(=O)C1CCN(S(=O)(=O)c2ccc(-n3cnnn3)cc2)CC1 (stereo unspecified)	-1.3	4
CC1CCC2(CC1)C(C#N)=C(SCC(=O)Nc1ccc(Br)cc1)NC(=O)C2C#N (stereo unspecified)	2.5	.
CN(C)c1nccc(N(Cc2ccccc2)Cc2ccccc2)c1C#N	.	-2
COc1ccc(OC)c(N/C=C(\C#N)c2nc(-c3cc4cc(Br)ccc4oc3=O)cs2)c1	1.5	.
CN(Cc1ccccc1)S(=O)(=O)c1ccc2[nH]c(=O)oc2c1	.	7
C/C=C(\C)c1nnc(NCC(C)(C)C)s1	0.3	.
O=C(c1cccs1)c1coc2ccc(O)c(CN3CCOCC3)c12	1.9	9

Further records:
Structure	MgrA-DNA mod	S aureus helic
Cc1nc2ccccc2c2oc(C(=O)NCCCN3CCCC3)cc12	.	10
CC1CCN(CC(=O)N2CCN(c3ccccc3)CC2)CC1	-20	7
O=C(O)C(Cc1ccccc1)NS(=O)(=O)c1cccc2cccnc12 (stereo unspecified)	-1.4	6
CCCC(C(=O)O)N1Cc2ccccc2C1=O (stereo unspecified)	-7.8	8
COc1ccc(O)c(/C=N/c2nc3ccccc3s2)c1	1.8	-1
COCC(=O)N1N=C(c2cccc(NS(C)(=O)=O)c2)CC1c1ccccc1C (stereo unspecified)	0.4	1
C=CCC1(NCCO)CCCCC1	-2.4	.
Cc1ccc(C)c(NC(=O)CC(NC2CCCCC2)C(=O)O)c1 (stereo unspecified)	.	-14

Next section
Structure	MgrA-DNA mod	S aureus helic
COc1ccc(C2c3cccn3CCN2C(=O)Nc2cccs2)cc1OC (stereo unspecified)	.	14
CCCNC(=O)N1CC(O)CC1C(N)=O (stereo unspecified)	.	-11
COC(=O)c1cc(OC)c(OC)cc1NC(=O)CSc1ccc(C)cc1	2.6	.
CN(C(=O)COc1ncnc2ccccc12)c1ccccc1	-1.5	-2
CC(=C1C(=O)c2ccccc2C1=O)N1CCc2ccccc2C1	-1.0	11
